P. yoelii liver – exo-erythrocytic parasite development inhibition – imaging, Malaria Box, P. yoelii, HepG2-A16-CD81EGFP, dose response (AID 602156); hit rate 4.8% among 5,700; calls after a first round at 10 µM; hits with a dose series show IC50 in µM; P. yoelii liver stage in HepG2-A16-CD81EGFP, imaging; first-round cut-off not given here; in the data active = a potency from the dose series;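 also: infected cells exposed to compound for 48 hours before fixation; stained parasite area by imaging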
Calls only; i = inactive. This is a subset (hit frequency here may not be typical).

SMILES	P. yoelii liver
CCCC(=O)O[C@]1(C(=O)CCl)[C@@H](C)C[C@H]2[C@@H]3CCC4=CC(=O)C=C[C@]4(C)[C@@]3(F)C(=O)C[C@@]21C	i
